From PubChem
NPYLR7 ag: mosquito NPYLR7 agonism; AID 1259423; HEK293T NPYLR7/Galpha15, GCaMP6s calcium fluorescence; activation, % at 10 µM; 270,000 compounds, 0.15% hits; in the data active means activation above about 40%;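 further: 0% = vehicle and 100% = reference agonist at the receptor; some compounds past the cut are filed as inactive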
NPYLR7 ag max-min: also measured in NPYLR7 ag; calls as there; activation, %; measured here: Max-Min RFU normalised activation; some inactives read as strong as hits;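 span of the calcium signal over five minutes; 0% = vehicle and 100% = native peptide agonist; compound fluorescence can raise it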
Active calls of the source: *. This is a subset; the hit share may differ from the screen's.

Molecule | NPYLR7 ag | NPYLR7 ag max-min
O=C(CCNC(=O)C12CC3CC(CC(C3)C1)C2)N1CCC(C(=O)N2CCCCC2)CC1 | 37.6 | 22.9
COc1ccc(NC(=O)c2cccc(N3C(=O)NC4CC3(C)Oc3ccccc34)c2)cc1 (centres undefined) | -1.0 | -8.1
CC(NC(=O)/C=C/c1ccccc1)C(=O)Nc1nc2c(s1)CN(C)CC2 (centres undefined) | 14.7 | 13.6
Cc1ccc(S(=O)(=O)NC(=O)CC(C)c2ccccc2F)s1 (centres undefined) | 3.5 | 0.4
CCc1ccc(N(Cc2nnc3n2CCCCC3)C(=O)Nc2cccc(OC)c2)cc1 | 5.4 | 2.7
COc1cc(C)ccc1OCCCOc1ccc([N+](=O)[O-])cc1 | -6.9 | -1.0
O=C1OC(C(=O)OCc2ccc3c(c2)OCO3)Cc2ccccc21 (centres undefined) | -5.9 | -5.3
COCCCN1COc2ccc3c(c2C1)O/C(=C\c1ccc(OC)cc1)C3=O | 41.0 | 34.0
CNc1ncc(CN(C)C(=O)C2CC(=O)N(CC(C)C)C2)cn1 (centres undefined) | 1.7 | -0.5
Fc1ccc(C2=NC3(CCCCC3)NC2=S)cc1 | -3.3 | -2.0
O=c1c2cnn(-c3ccccc3)c2ncn1CCOc1ccccc1F | -2.1 | -2.8
Cn1cc(SCC(N)=O)c2ccccc21 | 3.1 | 0.9
O=C(CCc1cccs1)Nc1cc2c(cc1Br)OCCO2 | 12.6 | 15.2
CCCC(=O)NC(=S)Nc1ccc(N(C)C(C)=O)cc1 | 6.3 | 12.2
c1ccc(CCc2nc(-c3cccc4cnccc34)n[nH]2)cc1 | 9.3 | -5.2
Cc1cccc(COC2CCCN(C(=O)C3CCC3)C2)c1 (centres undefined) | 1.3 | 10.4

The list goes on (6 carried over from the part before).
Molecule | NPYLR7 ag | NPYLR7 ag max-min
O=c1c2cnn(-c3ccccc3)c2ncn1CCOc1ccccc1F | -2.1 | -2.8
Cn1cc(SCC(N)=O)c2ccccc21 | 3.1 | 0.9
O=C(CCc1cccs1)Nc1cc2c(cc1Br)OCCO2 | 12.6 | 15.2
CCCC(=O)NC(=S)Nc1ccc(N(C)C(C)=O)cc1 | 6.3 | 12.2
c1ccc(CCc2nc(-c3cccc4cnccc34)n[nH]2)cc1 | 9.3 | -5.2
Cc1cccc(COC2CCCN(C(=O)C3CCC3)C2)c1 (centres undefined) | 1.3 | 10.4
CN1CCCC2(CCN(C(=O)CCc3c[nH]c4ccccc34)C2)C1=O (centres undefined) | 5.1 | 1.3
Cn1c(=O)[nH]c(=O)c2c1nc(SCc1ccccc1)n2Cc1ccccc1Cl | 1.4 | 39.5
COc1ccc(C=NN2CCN(Cc3ccccc3)CC2)cc1OCc1ccccc1 | -4.0 | -8.7
Cc1c(CN(C)C(=O)CCn2c(C)cccc2=O)[nH]c2ccccc12 | 5.0 | 3.0
Cc1cc(C(=O)N2CCN(c3ccc(NC(=O)c4ccco4)cn3)CC2)n(C)n1 | 7.2 | -5.9
CCC(C(=O)NCc1cccnc1N1CCN(C(C)=O)CC1)n1cccn1 (centres undefined) | -2.9 | -2.7
COc1ccc(C(=O)CSc2nc(N)c(NC(=O)c3ccc(F)c(F)c3)c(=O)[nH]2)cc1 | 0.6 | -0.7
CC(C)Sc1c(S)cnn(C)c1=O | 10.1 | 9.8
COc1ccc(OC)c(-c2cc3ccc4c(c3oc2=O)CN(C2CC2)CO4)c1 | -2.1 | 1.4
CC1CC(C)CN(Cc2csc(NC(=O)CNC(=O)c3ccccc3F)n2)C1 (centres undefined) | 2.4 | 1.2
COc1ccc(CCN(Cc2ccc(C)s2)C(=O)CN(C(=O)Nc2ccccc2F)C2CCCCC2)cc1OC | 15.5 | 20.3
COc1cc(Br)c(CNCc2ccc(OC(C)C)cc2)cc1OC | 10.9 | 6.1
N#CCCNn1c(-c2ccccc2)n[nH]c1=S | 7.7 | 6.0
CC(C)Oc1cccc(C(C)NC(=O)c2cccc(C#N)c2)c1 (centres undefined) | -5.5 | -6.9
O=c1oc(-c2cccc(-n3c(=O)c4ccccc4c4ccccc4c3=O)c2)nc2ccccc12 | 2.7 | 11.6
NCCCC(O)(P(=O)(O)O)P(=O)(O)O | 4.2 | -5.9
CN(C(=O)/C=C/c1ccc([N+](=O)[O-])s1)c1ccccc1 | -3.9 | -4.5
CCC(N)(CC)c1cn(CC2CCCN(S(C)(=O)=O)C2)nn1 (centres undefined) | -1.8 | -0.5
COc1ccc(C(=O)N(Cc2cc(NC(=O)CC(C)(C)C)ccc2N(C)C)C(C)c2ccccc2)cc1 (centres undefined) | 15.6 | 13.9
N#CC1(C#N)C(c2ccc(F)cc2)C(C(=O)C2CC2)N2c3ccccc3C=CC21 (centres undefined) | 11.8 | 8.6
CC(=O)Cn1c(=O)c2c(nc3n(-c4cc(Cl)ccc4C)c(C)c(C)n23)n(C)c1=O | 1.9 | 0.2
CCc1nnc(CN(C)c2nccc(-c3ccc(C)nc3C)n2)o1 | -0.5 | 0.6
C=CCn1c(=NC(=O)c2cccc(N3C(=O)CCC3=O)c2)sc2c3ccccc3ccc21 | 1.6 | -1.2
CCCCOc1ccc(-c2c(C#N)c(SCCCCSc3nc(C)c(C(=O)Nc4ccccc4)c(-c4ccc(OCCCC)cc4)c3C#N)nc(C)c2C(=O)Nc2ccccc2)cc1 | -3.6 | -6.7
CCC(C)N(CC(=O)O)C(=O)c1cnccn1 (centres undefined) | 2.4 | 0.3
O=C(c1cccs1)N1c2ccccc2CCc2ccccc21 | 1.3 | 0.5
Cc1cc[n+](CC(=O)N2CCCCC2)c(C)c1 | 1.6 | 2.5
O=C(O)C(c1ccccc1)n1cccc1 (centres undefined) | 3.6 | 1.4
CC1COCCN1C(=O)NCCCn1ccnc1 (centres undefined) | 5.4 | 3.9
CCOC(=O)N1CCN(C(c2ccc(F)cc2)c2c(O)cc(C)n(CC)c2=O)CC1 (centres undefined) | 1.7 | 0.0
Cc1cn2c3c(=O)n(CC=Cc4ccccc4)c(=O)n(C)c3nc2n1CC1CCCO1 (centres undefined) | 4.7 | 6.7
CCC(CC)C(=O)NCc1ccccc1S(=O)(=O)N(C)CCO | -1.4 | 22.9
O=C(Nc1nc(CCC(=O)N2CCCCC2)cs1)c1ccc[nH]c1=O | -9.7 | -12.1
O=C(NCc1n[nH]c(=S)n1-c1ccc(Br)cc1)c1ccccc1C(F)(F)F | -3.7 | -7.5
CCCCCCCC(=O)N1CCN(c2cc(Cl)nc(SCC(=O)NCc3ccc(F)cc3)n2)CC1C (centres undefined) | -2.7 | -0.8
Cc1ccnc(NC(=O)CCNS(=O)(=O)c2ccccc2Br)c1 | -11.1 | -4.7
CC(C)NC(=O)C1CCN(C2CCN(Cc3c(F)cccc3Cl)CC2)CC1 | -0.4 | -3.3
C=CCn1c(-c2occc2C)n[nH]c1=S | 22.1 | 12.0
CCOC(=O)C1CCCN(C(=O)c2c(C)c(N3CCOCC3)c(C)n2Cc2ccccc2C)C1 (centres undefined) | 10.8 | 18.7
O=C(Cn1c2ccccc2n2ncnc12)c1ccc(-c2ccccc2)cc1 | 7.1 | 5.2

The closing 2 compounds of the part above come first, to join the parts.
| compound | NPYLR7 ag | NPYLR7 ag max-min |
| --- | --- | --- |
| CCOC(=O)C1CCCN(C(=O)c2c(C)c(N3CCOCC3)c(C)n2Cc2ccccc2C)C1 (centres undefined) | 10.8 | 18.7 |
| O=C(Cn1c2ccccc2n2ncnc12)c1ccc(-c2ccccc2)cc1 | 7.1 | 5.2 |
| Cc1nc(N(C)C)nc(N(C)CC2COCCO2)c1C (centres undefined) | 13.8 | 4.6 |
| CN(Cc1cscn1)C1CCCN(Cc2noc(C3CC3)n2)C1 (centres undefined) | 2.0 | 0.3 |
| CCOc1ccc(NC(=O)Nc2ccc(C3NC(=S)N(C)C(C)=C3C(=O)OCC(C)C)cc2)cc1 (centres undefined) | 2.5 | 7.2 |
| COc1ccc2nc(CCn3cnnc3)[nH]c2c1 | 2.6 | 5.1 |
| Fc1ccc(Sc2ccncc2)cc1 | 7.1 | 4.7 |
| CN(CCN1CCOC1=O)C(=O)Cc1c[nH]c2ccccc12 | 0.7 | 2.9 |
| O=C(CSC1=NCCN1)C1COc2ccccc2O1 (centres undefined) | -5.4 | -7.3 |
| COC(=O)c1ccc(NC(=O)C2=NN(C)C(=O)CC2)cc1 | 6.7 | 0.8 |
| Cc1nn(C(C)C(=O)Nc2cnn(C)c2C(=O)N2CCCCC2)cc1Br (centres undefined) | 1.2 | 9.6 |
| Cc1cc(C)c(CNC(=O)N2CCC3(C2)OCCO3)c(C)c1 | 8.6 | 7.3 |
| Cc1ccc(Cl)c(CN2CCCC(Cn3ccnc3C)C2)c1F (centres undefined) | -1.9 | -7.3 |
| CN(C)c1cccc(-c2ccc3c(c2)C(C)(Cc2cccc(F)c2)C(=O)N3)c1 (centres undefined) | 3.2 | 2.6 |
| Fc1ccccc1Cc1noc(CN2CCC(C3CCCCC3)C2)n1 (centres undefined) | 9.8 | -1.6 |
| OC(c1ccc2c(c1)OCO2)c1ncc(-c2ccc(Cl)cc2)[nH]1 (centres undefined) | 1.5 | 1.1 |
| O=C(NCCCc1ccccn1)c1ccc(N2CC(O)C2)nc1 | 2.6 | 1.0 |
| CC(C)Cn1c(N2CCN(Cc3ccccc3F)CC2)nc2c1c(=O)[nH]c(=O)n2C | 5.8 | 0.9 |
| O=[N+]([O-])c1ccc2nc(-c3nc4ccc([N+](=O)[O-])cc4[nH]3)[nH]c2c1 | 3.8 | 2.6 |
| CCCc1ccc(C(=O)N2CCC3(CCCO3)CC2)cc1 | 9.3 | 6.0 |
| CCN(CC)C(=O)[C@@H]1C[C@H](N)CN1C(=O)/C=C/c1ccccc1 | 12.2 | 8.7 |
| CCN(CC)c1cccc(OCC(=O)NC(C)COC)c1 (centres undefined) | 10.5 | 6.1 |
| CC(C)(C)CC(C)(C)c1ccc(OCC(=O)NNC(=O)c2ccc([N+](=O)[O-])cc2)cc1 | -5.1 | -6.9 |
| CN(C(=O)CNc1ccccc1Cl)C1CCS(=O)(=O)C1 (centres undefined) | 2.3 | 0.5 |
| Cc1c(C)c(C)c(S(=O)(=O)N2CCN(c3nc4nccc(-c5ccc(Cl)c(Cl)c5)n4n3)CC2)c(C)c1C | 3.6 | -4.6 |
| Cc1ccc(-c2csc3nc(CN4CCC(C)CC4)[nH]c(=O)c23)cc1 | 4.6 | 9.2 |
| Nc1cc(-c2ccc(Cl)c(Cl)c2)nn1-c1ccc(C(=O)N[C@@H]2C[C@H]3CC[C@@H]2C3)cc1 | -13.9 | -22.0 |
| Cc1nnc(NC(=O)NC2(c3ccc(F)cc3)CCC2)s1 | -3.2 | -3.1 |
| CCc1c(C)nn(-c2ccc(C(=O)N[C@@H]3C[C@H]4CC[C@@H]3C4)cc2)c1C | 20.8 | 10.8 |
| O=S(=O)(c1ccc(F)cc1F)N1CCC(Cc2ccc(F)cc2)CC1 | 18.3 | 5.6 |
| Cc1nc(C2CC2)nc2sc(C(=O)N3CCCN(CC(=O)NC(C)(C)C)CC3)c(C)c12 | -4.9 | -6.7 |
| COc1cc(OC)nc(Nc2nc(C(C)N)cs2)n1 (centres undefined) | -7.1 | -12.1 |
| O=C(c1cnc2c(cnn2Cc2ccccc2)c1)N(Cc1ccccc1F)C1CC1 | 1.2 | 1.7 |
| O=C(c1cc(N2Cc3ccccc3C2)ccn1)N1CCOCC1 | 2.1 | 0.9 |
| COc1ccc(S(=O)(=O)N2c3cccc4cccc(c34)S2(=O)=O)cc1 | 3.1 | 2.9 |
| Cc1ccc(N=C(NNC(=O)NC2CCCCC2)C(F)(F)F)cc1C | 2.0 | 4.5 |
| Cc1cc(C)c(C)c(C(=O)CSc2nnc(N)s2)c1C | 0.6 | 19.6 |
| Cc1nn2c(c1C(C)C)n1nc(C)c(C(C)C)c1n1nc(C)c(C(C)C)c21 | -3.2 | -4.4 |
| COc1ccc(OC)c(-c2c(=O)n(OCc3ccccc3Br)c3ccccc3[n+]2[O-])c1 | 0.9 | -11.4 |
| O=C(COCc1ccccc1)N(CCCN1CCOCC1)CC(=O)N(Cc1ccc2c(c1)OCO2)Cc1ccco1 | -14.2 | -9.3 |
| Cc1cc(C(=O)N(Cc2cccnc2)c2nc3c(C(C)C)cccc3s2)no1 | 7.5 | 2.5 |
| Cc1ccc(-c2nnc(SCc3nc(-c4ccc(C)c(F)c4)no3)n2C)cc1 | 3.3 | 2.7 |
| O=C(CCc1nnc(Cc2ccc(-c3ccccc3)cc2)o1)NCc1cccnc1 | 2.0 | -0.4 |
| Cc1ccc(O)c(C(=O)NCCCS(=O)(=O)Cc2ccccc2)c1 | 12.1 | 8.1 |
| CCc1c(C)nc(-n2nc(C)cc2C)n(CC(=O)Nc2ccc3c(c2)OCO3)c1=O | 2.8 | 0.1 |
| CC(C)CC(N)c1csc(Nc2ccc(C(F)(F)F)cn2)n1 (centres undefined) | -6.6 | -12.4 |
| O=C1C[C@H]2CC[C@@H](CN1)N2C(=O)CCN1C(=O)COc2ccccc21 | 9.0 | 6.7 |
| CCN(C(=O)COc1ccc(C(C)(C)C)cc1)C1CCS(=O)(=O)C1 (centres undefined) | -0.4 | -1.5 |
| CCC(C)(NC(=O)c1ccccc1)c1nc(-c2cc(C)sc2C)cs1 (centres undefined) | 1.8 | -1.1 |
| CCS(=O)(=O)N1CCc2cc(C(=O)COC(=O)C3CCC(C(C)(C)C)CC3)ccc21 (centres undefined) | 0.0 | 10.3 |
| Cn1c(=O)oc2cc(Cl)c(C(=O)c3cc4c(cc3Cl)oc(=O)n4C)cc21 | 4.9 | 1.5 |
| O=C(O)CN1C(=O)/C(=C\c2cc(Br)ccc2OCc2ccc(Cl)cc2Cl)SC1=S | 0.3 | 10.8 |
| N#CC1C(=N)Oc2c(sc3ccccc23)C1c1cccc(Br)c1 (centres undefined) | 5.6 | 1.7 |
| Cc1cc(C)nc(N2CC3ON=C(c4ccc(F)cc4)C3C2)n1 (centres undefined) | 0.4 | -3.6 |

Record cards, as listed above. Order of screens: NPYLR7 ag | NPYLR7 ag max-min
N#CC1C(=N)Oc2c(sc3ccccc23)C1c1cccc(Br)c1 (centres undefined) is entered as 5.6 | 1.7
Cn1c(=O)oc2cc(Cl)c(C(=O)c3cc4c(cc3Cl)oc(=O)n4C)cc21 is entered as 4.9 | 1.5
